High-throughput results: PubChem BioAssay, several laboratories
RanGTP-Impb inh: disruptors of Ran-importin-beta complex formation – biochemical, FRET, CFP-Ran, YFP-importin-beta, homogeneous, primary screen | 300,000 tested, 1.1% active | cell-free CFP-Ran/YFP-importin-beta FRET ratio | inhibition, % (test concentration not listed);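 active means most replicates above 15%; inconclusive means exactly half above 15%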;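 further: 0% = DMSO wells and 100% = Ran loaded with GDP instead of GTP; wells of about 40 µL received 100 nL stock; the first replicate is given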
Beta apoptosis: blocks beta cell apoptosis; INS-1E cytokine-induced death, ATP luminescence, 48 h; percent of positive-control rescue, neutral wells zero; protection from apoptosis, % (concentration not given with the values); 300,000 tested, 0.8% active;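 active means all replicates at 75% or more, or half of them and the mean; inconclusive means half reach 75% but not the mean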;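 further: 0% = cytokine-treated negative control wells and 100% = positive control rescue; higher means more ATP so stronger rescue from cytokine killing; wells of about 40 µL received 100 nL stock; the first replicate is given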
LANA-H2A inh: blocks KSHV LANA binding to histone H2A/H2B. Q9QR71. cell-free LANA-H2A/H2B peptide, fluorescence polarization. inhibition, % (concentration not given with the values). 320,000 tested, 0.6% active. AID 2629; in the data active means inhibition mostly above about 10%, no sharp cut-off; inactive means mostly below about 6.7%;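 further: stock transfer was 7.5 nL into about 10 µL; 0% = median of vehicle wells and 100% = median of positive control wells; one replicate is shown; the record names a cut of 25% in any replicate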
B2AR ag: agonists of human beta-2 adrenergic receptor inducing internalization; 340,000 tested, 0.43% active; Am2.2-beta2AR cells, FAP receptor internalization, flow cytometry; reference of the scale not given here; P07550; AID 504454; response, % (concentration not given with the values);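 active means response above a set limit, near 3 SD of response in nonfluorescent compounds, cut at about 42% in these data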;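 further: stock transfer was 100 nL into about 11 µL; a reference agonist was the positive control; negative values mostly stem from fluorescent compounds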
Target sequence (P07550 whole entry, looked up): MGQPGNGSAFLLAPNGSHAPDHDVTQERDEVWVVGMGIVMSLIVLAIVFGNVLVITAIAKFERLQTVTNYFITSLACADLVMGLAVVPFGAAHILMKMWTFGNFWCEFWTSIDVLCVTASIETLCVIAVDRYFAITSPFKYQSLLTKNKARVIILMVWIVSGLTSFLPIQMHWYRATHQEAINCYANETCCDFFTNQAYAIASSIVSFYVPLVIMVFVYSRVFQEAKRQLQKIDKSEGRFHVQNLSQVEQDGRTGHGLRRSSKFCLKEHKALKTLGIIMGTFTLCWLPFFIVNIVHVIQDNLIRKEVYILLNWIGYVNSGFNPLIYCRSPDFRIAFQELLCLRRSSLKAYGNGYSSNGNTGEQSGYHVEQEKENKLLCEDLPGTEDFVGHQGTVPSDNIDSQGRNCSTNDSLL
Calb FLC: affects C. albicans growth with fluconazole; growth inhibition, % (test concentration not listed); AID 1979; 300,000 tested, 0.57% active; C. albicans CaCi-2 (fluconazole-resistant clinical isolate) + fluconazole, Alamar Blue growth, 48 h;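 active means most replicates above 75%; inconclusive means exactly half above 75%; inactive means most below 75%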;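 further: all wells also contain fluconazole at 8 µg/ml as a sub-toxic cotreatment; 0% = median of DMSO wells and 100% = median of geldanamycin control wells; wells of about 8 µL received 7.5 nL stock; the first replicate is given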
UCH37 DUB inh: human UCH37 deubiquitinating enzyme inhibition; purified proteasome/UCH37, Ub-AMC cleavage fluorescence; inhibition, % (concentration not given with the values); 330,000 tested, 0.33% active;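 active means mean of two replicates above 20%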;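 further: 0% = compound-free wells with enzyme and 100% = wells lacking proteasome; stock transfer was 100 nL into about 20 µL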
Target sequence (Q9Y5K5 whole entry, looked up): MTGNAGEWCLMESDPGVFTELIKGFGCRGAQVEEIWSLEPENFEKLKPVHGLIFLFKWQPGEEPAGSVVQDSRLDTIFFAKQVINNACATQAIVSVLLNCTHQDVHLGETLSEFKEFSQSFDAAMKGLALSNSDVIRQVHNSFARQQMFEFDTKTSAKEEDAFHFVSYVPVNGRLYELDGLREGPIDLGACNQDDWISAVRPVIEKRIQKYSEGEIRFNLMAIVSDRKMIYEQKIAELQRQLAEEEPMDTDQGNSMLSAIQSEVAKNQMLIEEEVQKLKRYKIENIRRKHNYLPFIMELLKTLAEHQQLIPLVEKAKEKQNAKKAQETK
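System: Proteasome-associated human UCH37 deubiquitinase; Input: 0.15 nM proteasome in added enzyme buffer; Also added: Ub-AMC substrate from 1 µM stock; Incubation: 30 min compound-proteasome preincubation then 25 min substrate reaction, room temperature; Detection: fluorescence, ex 355 nm, em 460 nm; Read-out: % inhibition of Ub-AMC cleavage fluorescence; Benchmarks: no-proteasome and no-compound wells.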
Bfl-1 A1 inh: inhibitors of the anti-apoptotic protein A1, read as caspase activation; MEF A1-2A-BIM cells, Caspase-Glo 3/7 luminescence, 3 h; percent of clofoctol response, vehicle zero; caspase activation, % (test concentration not listed); 330,000 tested, 0.066% active; AID 2462;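 active means over half of replicate activation scores above 10%, or exactly half above 10 with the replicate mean above 10; inconclusive means replicate mean below 10 yet half the replicates above 10; inactive means over half of replicates below 10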;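 further: wells of about 30 µL received 50 nL stock; many hits fall short of the cut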
T cruzi inh: T. cruzi replication inhibition; T. cruzi beta-gal in NIH3T3, luminescence, 90 h; inhibition, % (no concentration beside the values); 300,000 tested, 1.4% active; AID 1885;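 active means mean inhibition across valid replicates above about 55%, limit read from the data; inconclusive means mean below that limit but half or more replicates reach it; inactive means mean below it, under half of replicates reach it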;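 further: signal also drops with host cell toxicity which is not excluded here; 0% = plate median of DMSO wells and 100% = zero luminescence signal; higher percent means less beta-gal luminescence so fewer parasites; stock transfer was 50 nL into about 50 µL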
* marks the source's active call; other numbers are inactive results; i = inactive; ? = inconclusive; nt = not tested or not shown.

SMILES	RanGTP-Impb inh	Beta apoptosis	LANA-H2A inh	B2AR ag	Calb FLC	UCH37 DUB inh	Bfl-1 A1 inh	T cruzi inh
Cc1ccc(S(=O)(=O)Nc2cccc(C(=O)NCC(c3ccco3)N3CCCCC3)c2)cc1F (configuration not stated)	-0.4	nt	-1.2	-2	2	7.9	-0.4	-9
O=c1[nH]ncc(N/N=C\c2ccc(O)cc2O)c1Cl	-5.7	-2	-2.1	0	-4	nt	-13	-37
Cc1nonc1NCn1nnc2ccccc21	2.0	-3	-2.3	1	-3	3.6	-0.2	-2
CCN(CC)CCCNC(=O)c1cn(CC(C)C)c(=O)c2c1c1ccccc1n2C	-0.5	-4	2.8	-2	-2	-85	-0.1	-22
COc1cc(/C=C(\C#N)c2ccccn2)ccc1OCc1ccccc1Cl	nt	2	-1.5	9	nt	-30	-0.3	nt
Cc1ccc(/C(N)=N/OC(=O)CCc2ccccc2)cc1	-5.2	-2	0.3	1	-11	-1.6	0.7	4
CCCc1cc(=O)[nH]c(SCC(=O)Nc2ccc(C)cc2)n1	-6.0	5	-6.9	13	-1	nt	-0.3	-3
Cc1c(C(=O)NNC(=O)c2cccnc2)cccc1[N+](=O)[O-]	nt	2	1.4	2	nt	3.9	-1.5	nt
O=C(/C=C/c1ccccc1F)c1ccoc1	2.1	0	-3.8	0	-3	-1.8	-0.1	-21
O=C(CSc1cn(CCNC(=O)c2c(F)cccc2F)c2ccccc12)NCC1CCCO1 (configuration not stated)	-0.9	1	3.8	-1	3	1.5	0.1	-6
COc1ccc(NC(=O)C(c2ccc(OC)cc2)N(C)C(=O)c2cnccn2)cc1 (configuration not stated)	3.5	-20	-3.8	-8	25	6.9	-0.7	4
O=S(=O)(NCc1cc(-c2ccccc2Cl)no1)c1ccc(Cl)cc1	-1.5	-5	-1.9	-2	-6	2.3	0.5	10
CC(C)(C)C1CCc2nc(NC(=O)Cc3cn4ccsc4n3)sc2C1 (configuration not stated)	3.6	-1	-0.9	-1	5	0.3	0.4	20
CCCCCOc1ccc(C(C)(O)C(CN2CCOCC2)c2ccccc2)cc1 (configuration not stated)	0.5	0	-1.9	-4	-4	1.4	-0.7	-6
COC(=O)c1[nH]c2ccc(Br)cc2c1NC(=O)CN1CCCc2ccccc21	-5.5	0	-0.3	2	3	12	0.8	29
COc1ccc(OC)c(CNC(=O)CCc2cn(C)c3ccccc23)c1	-1.9	-3	0.7	-6	1	3.5	0.8	1
CCCNC(=O)C(Cc1cccc(Br)c1)NC(=O)c1ccc(C#N)cc1 (configuration not stated)	nt	3	2.5	2	nt	4.7	-0.1	nt
O=C(CN1C(=O)NC(CCc2ccccc2)C1=O)Nc1ccccc1C(F)(F)F (configuration not stated)	nt	0	0.3	-1	nt	-3.8	0.7	nt
COc1ccc(CCNc2cc(C)nc(N)n2)cc1OC	?	1	-0.1	-7	7	1.8	0.4	1
Clc1ccc(CNc2nc(CN3CCOCC3)nc3scc(-c4ccccc4)c23)cc1	-1.0	8	-1.2	-16	18	3.9	0.5	25
Cc1cc(C)c(C(=O)Nc2cccc(F)c2)c(Cl)n1	2.5	0	1.6	11	0	-1.2	-0.6	-13
CNC(=O)C1CC(=O)N(CCc2ccc(C)cc2)C1 (configuration not stated)	?	-8	-6.8	4	-6	4.3	-0.5	-4
CCn1c(CCNC(=O)c2cccs2)nnc1SCC(=O)Nc1cccc(Cl)c1	-1.0	-7	7.8	-7	0	4.1	-0.3	-8
COc1ccccc1-n1c(SCC(=O)O)nc2c(sc(=S)n2-c2ccc(Cl)c(C)c2)c1=O	-4.5	-2	0.1	7	-3	12	0.7	4
O=C(N=C1SC2CS(=O)(=O)CC2N1c1ccc(Cl)cc1)C1CCCO1 (configuration not stated)	1.1	-3	-1.0	1	1	3.1	0.0	-4

Continued; it opens with the 2 that closed the last part.
SMILES	RanGTP-Impb inh	Beta apoptosis	LANA-H2A inh	B2AR ag	Calb FLC	UCH37 DUB inh	Bfl-1 A1 inh	T cruzi inh
COc1ccccc1-n1c(SCC(=O)O)nc2c(sc(=S)n2-c2ccc(Cl)c(C)c2)c1=O	-4.5	-2	0.1	7	-3	12	0.7	4
O=C(N=C1SC2CS(=O)(=O)CC2N1c1ccc(Cl)cc1)C1CCCO1 (configuration not stated)	1.1	-3	-1.0	1	1	3.1	0.0	-4
O=C(Nc1c(C(=O)N2CCCC2)cnn1-c1ccccc1)c1cccc(F)c1	-0.3	8	3.7	-4	16	-1.7	0.6	4
CN(C)S(=O)(=O)c1ccc2c(c1)c(=O)c(C(=O)N1CCN(c3ccccn3)CC1)cn2C	1.4	1	-6.3	-1	3	5.5	-0.7	-1
CNC(=S)NC1CC2CCC(C1)N2Cc1ccccc1 (configuration not stated)	-1.7	-6	-1.7	6	-5	1.1	-0.5	-13
Cc1nc(NC(=O)CCC(=O)O)sc1C(=O)N(C)C	-0.7	-1	-4.4	-10	-4	-3.8	0.4	-13
CCOC(=O)c1c(NC(=O)CSc2nnnn2-c2ccccc2)sc2c1CCC(C)C2 (configuration not stated)	2.0	1	1.0	1	0	2.5	0.7	11
COC(=O)c1ccccc1NC(=O)CSCC(=O)Nc1ccccc1	?	3	3.9	31	37	2.2	0.5	1
CC(=O)Nc1ccc(C(=O)OCC(=O)Nc2c(C)n(C)n(-c3ccccc3)c2=O)cc1	nt	-7	1.7	11	nt	2.3	-0.7	nt
COCCn1c(CN2CCN(c3cccc(Cl)c3)CC2)nc2c1c(=O)n(C)c(=O)n2C	?	30	-0.9	6	3	0.9	-0.5	-23
C/C(=C\c1ccccc1)CN1CCN(C)CC1	4.8	0	1.6	12	5	2.8	1.7	-2
O=C(Nc1ccc(N2CCOCC2)cc1)c1cc(F)c(F)cc1Cl	-0.5	-4	nt	2	-1	0.9	0.0	-7
Cc1ccc(S(=O)(=O)N2CCN(C)CC2)cc1C	-1.5	-1	-4.2	-6	0	1.0	0.2	0
CCCCCC1CCC(c2ccc(/C(N)=N/O)cc2)CC1 (configuration not stated)	3.8	2	-1.3	10	4	1.2	0.1	13
Nc1nnc(SCC(=O)N2CCN(c3ccccc3)CC2)s1	-4.4	4	5.8	-3	3	-0.7	-0.2	-3
CCc1ccc(NC(=O)N(Cc2cccnc2)Cc2ccco2)cc1	-0.9	2	-0.9	-3	-12	2.2	-0.2	nt
O=C(c1cccs1)N(CCO)Cc1cc2cc3c(cc2[nH]c1=O)OCCO3	-1.9	nt	nt	nt	-4	-17	nt	-10
CN(Cc1cccnc1)C(=O)CC1C(=O)NCCN1CC(c1ccccc1)c1ccccc1 (configuration not stated)	0.4	-3	-9.3	-2	?	1.0	0.8	1
Fc1ccc(-c2csc(NC3=NCCC3)n2)cc1	1.2	-27	-1.8	-24	0	1.8	-0.6	-11
CCCn1cc(CN2CCC(n3nccc3NC(=O)c3ccccc3)CC2)c(C)n1	-0.2	0	-27	3	0	0.0	-0.5	30
Cc1ccc(-c2ccc(CCC(=O)O)o2)cc1	2.4	-2	-6.0	7	8	2.9	-3.6	-15
Cn1cc(C=O)c2cc(F)ccc21	-3.9	-2	-3.7	-1	-2	3.4	-0.9	-11
Cn1nc(-c2ccccc2)cc1NC(=O)Nc1ccccc1F	3.8	-6	-3.4	3	15	1.6	-0.1	8
CNC(=S)N/N=C/c1cn(Cc2ccc(C)cc2)c2ccccc12	-1.8	3	-10	1	5	nt	-0.6	25
CSc1ccccc1NC(=O)COC(=O)c1ccc(O)cc1	4.6	-7	2.6	-7	12	4.6	-1.6	-7
Cc1ccc2cc3c(NC(=O)c4cccnc4)nn(C)c3nc2c1	?	-7	0.7	-3	-1	-15	0.1	2
O=C(CSc1ncc(C(=O)O)n1-c1ccc(F)cc1)NCc1ccc2c(c1)OCO2	6.1	1	-4.4	-2	-3	-3.7	0.2	-2
(more compounds)
SMILES	RanGTP-Impb inh	Beta apoptosis	LANA-H2A inh	B2AR ag	Calb FLC	UCH37 DUB inh	Bfl-1 A1 inh	T cruzi inh
Cc1ccc(Sc2ccc(C(=O)N(C)C)cc2[N+](=O)[O-])cc1	3.2	-4	-2.2	-4	26	5.0	0.1	14
CC(C)(C)NC(=O)C(c1ccncc1)N(C(=O)Cn1nnc(-c2ccc(F)cc2)n1)c1ccccc1 (configuration not stated)	1.6	nt	13	5	-7	0.7	0.7	12
COc1cccc(CNCc2ccccc2OC)c1	1.1	-3	-0.4	-1	12	-0.4	0.2	-3
CCOC(=O)C(=O)N1CCN(CC)CC1	2.8	0	-3.6	-2	-2	-0.1	-0.3	1
CCCc1cc(=O)[nH]c(SCC(=O)c2ccc(S(=O)(=O)N3CCCC3)cc2)n1	1.0	0	2.8	5	10	1.2	-0.1	1
NC(=O)Cn1cc(/C=N/NC(=O)c2ccc(Cn3cc(Cl)cn3)o2)c(-c2ccccc2)n1	nt	-2	0.5	2	1	nt	1.6	nt
Cc1ccccc1NC(=O)c1ccc2c(c1)CCN2S(C)(=O)=O	0.0	-6	1.9	4	-1	-0.5	2.6	0
C=C(C)c1ccc(C(C)(C)NC(=O)N2CCN(C)CC2)cc1	-5.0	0	-1.1	3	0	2.9	-0.3	-1
CCC(C)NC(=O)c1cc2cc3ccc(OC)cc3nc2o1 (configuration not stated)	2.3	7	-2.1	5	10	i	-1.6	-13
COC(=O)CN1C(c2ccc(Cl)cc2)=Nc2ccc(Cl)cc2C1c1ccccc1 (configuration not stated)	?	nt	9.5	5	-6	1.7	1.0	34
O=C(NCc1ccccn1)c1cn(Cc2ccccc2)nn1	1.1	-7	-3.1	2	2	1.0	0.3	-7
O=C(O)c1cccc(S(=O)(=O)Nc2ccccc2N2CCOCC2)c1	2.9	-3	3.8	7	0	2.0	-0.1	1
Cc1cccc(N2CCN(C(=O)c3ccc(CS(=O)(=O)c4ccccc4C)o3)CC2C)c1 (configuration not stated)	-2.8	21	-3.8	33	11	3.0	-0.5	16
O=C(CN1C(=O)c2ccccc2C1=O)NCC(=O)OCC(=O)c1cccc([N+](=O)[O-])c1	4.6	1	-4.0	-2	9	4.7	0.9	-1
Cc1ccc(S(=O)(=O)[N-]c2nc3ccccc3nc2-n2cc[n+](Cc3ccccc3)c2)cc1	14*	-2	-0.8	-3	-8	-76	0.9	0
COc1ccc(Cl)cc1C(=O)n1cnc2ccccc21	0.4	-17	1.1	-7	-1	2.7	0.1	-14
Cn1cc(Br)c(C(=O)Nc2sc3c(c2C(N)=O)CCC3)n1	5.5	10	6.1	-18	6	-35	-2.1	13
COc1ccccc1C(C)NC(=O)Cc1ccc(S(=O)(=O)N2CCOCC2)s1 (configuration not stated)	?	1	4.1	4	-6	3.0	0.7	15
COc1ccc(OCC(=O)NCCCCCCNC(=O)COc2ccc(OC)cc2)cc1	-2.0	-18	4.5	2	11	0.9	-0.2	5
O=C(Nc1ccc2c(c1)OCO2)N1CCN(c2ccccc2Cl)CC1	6.1	4	5.5	0	-18	0.6	0.0	-13
CC1(C)CC(=O)C(C=Nc2ccccc2Sc2ccccc2)=C(O)C1	4.0	-7	-1.9	-10	6	1.2	1.6	-10
Cc1nn(CCC(=O)NCc2ccc(N(C)C)cc2)c(=O)c2nn(-c3ccccc3)c(C)c12	-1.8	-1	1.7	-2	-4	3.0	-0.4	1

Compounds as they come. About 4.3% of those tested had a hit in this group.
